From PubChem BioAssay
Sfp PPTase inh: blocks B. subtilis Sfp PPTase activity; Q9F4F7; Biochemical Sfp PPTase activity, qHTS; Potency, µM, for inactives: max response, negative = inhibition, most hits filed as inhibitors; 3.5% of 310,000 active; AID 1490; active = well fitted inhibition curve with a large enough effect; inconclusive = small, poorly fitted or top-dose-only effect, or another doubt; inactive = no such curve, though single readings can be large or run the other way;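 note: the enzyme is Sfp with the accession as filed and its product quenches rhodamine fluorescence; potency is the fitted concentration of half-maximal effect; 0% = enzyme reaction without inhibitor and -100% = no enzyme wells; top concentration of the series not given in the record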
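After 15 min at room temperature with compound, 15 nM Sfp received 5 uM rhodamine-CoA plus 12.5 uM BHQ-2-ybbR (50 mM Hepes pH 7.6, 10 mM MgCl2). Rate came from the fluorescence difference over 30 min, ex 525/em 598 nm.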
PINK1 modulator: changes PINK1 expression | PINK1 immunofluorescence, high-content cytometry, 24 h | Potency, µM (series often up to 76.6 µM), for inactives: top-dose activation (PINK1 increase), hits mostly activators | 0.2% of 410,000 active; active = well fitted activation curve with a large enough effect; inconclusive = small, poorly fitted or top-dose-only effect; inactive = flat fitted curve, though single readings scatter; cell line not stated here;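 note: potency is the fitted concentration of half-maximal effect; % of control where 0% means no effect; nearly all actives have a fitted effect of over 65% in size; a mitochondrial uncoupler was the plate control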
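PINK1 protein level read as immunofluorescence by microplate cytometer in a fixed, stained stable cell line after 24 h exposure to five compound concentrations, with CCCP as control.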
ClpP mod: qHTS Assay for Activators of ClpP. ATP-dependent Clp protease proteolytic subunit (Bacillus subtilis (strain 168)), P80244. 1.9% of 340,000 active. AID 651965, 2013. purified B. subtilis ClpP, FRET peptide cleavage, 20 min. Potency, µM (highest dose often 57.5 µM), inactives show at the top dose activity change, negative = active; active = well fitted falling curve with a large enough effect; inconclusive = small, poorly fitted or top-dose-only effect; inactive = no such curve, though single readings can be large or run the other way; note: potency is the fitted concentration of half-maximal effect; the source files actives as falling curves though it sought activators and does not explain the sign; nearly all actives have a fitted effect of over 65% in size; many hits overshoot -100%
Target sequence (P80244 whole entry, looked up): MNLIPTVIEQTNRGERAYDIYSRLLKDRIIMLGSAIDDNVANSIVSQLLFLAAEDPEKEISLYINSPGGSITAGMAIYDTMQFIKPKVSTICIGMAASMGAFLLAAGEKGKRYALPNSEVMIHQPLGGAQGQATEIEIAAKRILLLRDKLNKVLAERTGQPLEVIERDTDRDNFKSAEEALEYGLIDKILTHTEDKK
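FRET quenching reversal measured ClpP activation: 10 microg/mL B. subtilis ClpP at pH 8 with the FRET-FV decapeptide, read at 430 nm after 320 nm excitation. The 20-min minus 0-min signal was scaled between DMSO/no-enzyme wells and ADEP (5.8 microM final).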
TRPML1 agonist: activates the human TRPML1 channel | 0.12% of 410,000 active | activation, % (no concentration beside the values) | TRPML1-expressing cells, Ca2+ dye fluorescence, FDSS; host cell line not named in the record; reference of the full effect not given here | Q9GZU1 | AID 624414; in the data active = activation above about 50%; inconclusive = about 30% to 50%; inactive = below about 30%; note: 0% is about no effect; the text of the record puts the active cut at 80%
Target sequence (Q9GZU1 whole entry, looked up): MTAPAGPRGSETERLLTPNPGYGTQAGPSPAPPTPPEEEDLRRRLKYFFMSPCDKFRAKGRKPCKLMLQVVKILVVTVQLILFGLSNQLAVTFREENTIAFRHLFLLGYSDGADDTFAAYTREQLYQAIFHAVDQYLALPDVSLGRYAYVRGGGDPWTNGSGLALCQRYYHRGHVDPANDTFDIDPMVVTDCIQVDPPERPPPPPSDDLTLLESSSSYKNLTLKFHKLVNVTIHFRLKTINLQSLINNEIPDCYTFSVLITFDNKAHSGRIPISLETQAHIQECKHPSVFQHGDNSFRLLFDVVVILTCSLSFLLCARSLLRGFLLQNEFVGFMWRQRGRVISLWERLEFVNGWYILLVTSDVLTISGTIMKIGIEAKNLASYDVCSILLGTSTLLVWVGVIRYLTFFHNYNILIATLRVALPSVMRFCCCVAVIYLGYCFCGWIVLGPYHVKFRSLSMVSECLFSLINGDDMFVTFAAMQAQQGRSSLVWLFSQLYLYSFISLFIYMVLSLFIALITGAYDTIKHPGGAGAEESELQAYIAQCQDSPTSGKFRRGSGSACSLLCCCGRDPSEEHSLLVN
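Tet-induced TRPML1-DL cells, 1,500 per well, cultured overnight, were loaded with a no-wash Ca2+ dye for 45–90 min. Calcium fluorescence was recorded on the FDSS for 110 s after compound addition, before the EC80 agonist (4 uM 54-4) was added.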
TRPML1 blocker: inhibitors of human TRPML1 channel. Q9GZU1. TRPML1-inducible cells, Ca2+ dye fluorescence, FDSS; stronger effect = lower value; inhibition of EC80 agonist-evoked calcium signal. activity change, negative = inhibition, % (test concentration not listed). 0.02% of 390,000 active. AID 624415; in the data active means activity change below about -50%; inconclusive means about -30% to -50%; inactive means above about -30%;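 note: stimulus is agonist 54-4 at its EC80 concentration; % is set by controls: 0 for no effect and ±100 for the full control effect; compound concentration not given in the record; the text of the record puts the active cut at -80%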
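Calcium fluorescence in TRPML1-DL cells induced overnight with Tet: a 110 s read after compound pin addition, then a 110 s antagonist read after challenge with 54-4 at 4 uM final (EC80).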
Menin MLL FP FL: inhibitors of human menin-MLL interaction, wild-type MLL peptide; Fluorescence polarization, fluorescein-MLL peptide displacement from menin; FP activity change, % at 61.4 µM; 290,000 tested, under 10 active; AID 1766; inconclusive = falling polarisation curve, or a change in total fluorescence; inactive = total fluorescence flat and polarisation flat or rising; no compound was filed as active; the % refers to the polarisation; negative = inhibition;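 note: % of control where 0% means no effect; inhibitors lower the polarisation; unlabelled MLL peptide was the positive control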
TRPV1 potentiator: potentiators of human vanilloid receptor 1 (TRPV1); potentiation, % at 8.33 µM; Q8NER1; 0.02% of 320,000 active; TRPV1-expressing cells, Fluo-8 calcium influx, capsaicin EC20 potentiation; host cell line not named in the record; control for the full effect not named in the record; AID 540277; active means potentiation above 80%; inconclusive means 30% to 80%; inactive means below 30%; note: 0% is about no effect
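TRPV1-expressing cells were cultured overnight at 35.5C and loaded with Fluo-8 calcium dye for 40 to 90 min at room temperature. After a 10 s baseline, compound was added and calcium influx was read kinetically for 3 min (ex 480/em 520 nm).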
Numbers without * were called inactive; & = joins results of further samples; [ ] = remark or other dose. Compounds were not picked by outcome (roughly 4.4% active in at least one column).

What do the screens show for `CCCCn1nnnc1C1(C)CCC(=O)N1Cc1ccc(OC)cc1` (configuration not stated)?
PINK1 modulator: -0.5%; ClpP mod: 1.8%; TRPML1 agonist: 0.1

How did CSCCC(NC(=O)c1ccc(Cl)cc1Cl)C(=O)N(C)Cc1nc2ccccc2c(=O)[nH]1 (configuration not stated) do in these assays?
PINK1 modulator: 11.1%; ClpP mod: 0.4%; TRPML1 agonist: 2.5; TRPML1 blocker: 3.7; TRPV1 potentiator: 10.6

What do the screens show for `CCCCOc1ccc(/C=C/C(=O)Nc2ccc([N+](=O)[O-])cc2C)cc1`?
Sfp PPTase inh: 10.4%; PINK1 modulator: 3.5%; ClpP mod: 2.3%; TRPML1 agonist: -0.5; TRPML1 blocker: 23.2; Menin MLL FP FL: -0.1; TRPV1 potentiator: 11.2

Results for O=C(COC(=O)CNS(=O)(=O)c1ccc(Br)cc1Cl)NC1CCCC1 ?
PINK1 modulator: -1.8%; TRPML1 agonist: -0.3; TRPML1 blocker: -16.7; TRPV1 potentiator: -0.1

How did CCOc1ccc(CN2CCN(C3CCC3)CC2CCO)cc1 (configuration not stated) do in these assays?
Sfp PPTase inh: 15.4%; PINK1 modulator: 0.6%; TRPML1 agonist: 0.4; TRPML1 blocker: 1.5; Menin MLL FP FL: 0.4; TRPV1 potentiator: 6.2

Results for Cc1cccc(-c2ncc(CN3CCN(CC(C)C)C(CCO)C3)cn2)c1 (configuration not stated) ?
Sfp PPTase inh: 22.8%; PINK1 modulator: 2.7%; ClpP mod: -1.3%; TRPML1 agonist: -0.1; TRPML1 blocker: -4.0; Menin MLL FP FL: -4.3; TRPV1 potentiator: -2.4

How did CC(Oc1ccccc1)C(=O)Nc1ccc(S(=O)(=O)NCC2CCCO2)cc1 (configuration not stated) do in these assays?
Sfp PPTase inh: 4.7%; PINK1 modulator: -3.9%[38.3 µM]; ClpP mod: 0.5%; TRPML1 agonist: 0.4; TRPML1 blocker: -5.8; Menin MLL FP FL: 2.9; TRPV1 potentiator: -0.7

What do the screens show for `COc1ccccc1N1C(=O)C(Cl)=C(Nc2ccccc2O)C1=O`?
Sfp PPTase inh: 39.8µM*; PINK1 modulator: 1.9%; TRPML1 agonist: 0.4; TRPML1 blocker: 26.3; Menin MLL FP FL: inconclusive; TRPV1 potentiator: 5.5

Results for O=C(NCCC1=CCCCC1)C1CCN(S(=O)(=O)c2cccc3cccnc23)CC1 ?
Sfp PPTase inh: 5.8%; PINK1 modulator: -0.2%; ClpP mod: 0.6%; TRPML1 agonist: -0.4; TRPML1 blocker: 11.0; Menin MLL FP FL: 3.3; TRPV1 potentiator: 0.8

What do the screens show for `O=C(NCc1ccccc1)c1cccc(S(=O)(=O)NCc2ccccc2)c1`?
Sfp PPTase inh: 17.6%; PINK1 modulator: 3.9%; ClpP mod: -1.5%; TRPML1 agonist: 0.5; TRPML1 blocker: -17.5; Menin MLL FP FL: -0.5; TRPV1 potentiator: 2.9

How did Cc1ccc(Cl)cc1N1CCN(CCCNc2ncnc3onc(-c4ccc(Cl)cc4)c23)CC1 do in these assays?
PINK1 modulator: 0.3%; ClpP mod: 0.6%; TRPML1 agonist: -0.9; TRPML1 blocker: -15.4

Results for COc1cc(S(=O)(=O)N2CCN(C)CC2)ccc1Cl ?
Sfp PPTase inh: 4.9%; PINK1 modulator: -2.7%[38.3 µM]; ClpP mod: -3.3%; TRPML1 agonist: 0.7; TRPML1 blocker: 8.5; Menin MLL FP FL: -1.3; TRPV1 potentiator: -29.9

How did CC(CCc1ccccc1)NC(=O)c1ccccc1F (configuration not stated) do in these assays?
Sfp PPTase inh: 4.6%; PINK1 modulator: -0.2%; ClpP mod: -0.2%; TRPML1 agonist: -0.6; TRPML1 blocker: 0.6; Menin MLL FP FL: -7.7; TRPV1 potentiator: -5.4

What do the screens show for `CCn1c(=O)n(CC)c2cc(N3CCCCC3)c(NC(=O)Nc3ccccc3C(F)(F)F)cc21`?
PINK1 modulator: 0.1%; ClpP mod: -21.8%; TRPML1 agonist: 3.0; TRPML1 blocker: 30.2

What do the screens show for `CCSc1nnc(NC(=O)c2ccc3c(c2)OCO3)s1`?
Sfp PPTase inh: 19.7%; PINK1 modulator: 4.4%[38.3 µM]; ClpP mod: -26.0%; TRPML1 agonist: 0.6; TRPML1 blocker: 6.0; Menin MLL FP FL: 1.9; TRPV1 potentiator: -14.5

Results for CCCOc1ccc(Oc2cc(C)nc(SC)n2)nn1 ?
Sfp PPTase inh: -4.3%; PINK1 modulator: 0.1%; ClpP mod: -2.1%; TRPML1 agonist: 1.2; TRPML1 blocker: 7.3; Menin MLL FP FL: 3.3; TRPV1 potentiator: 0.6

What do the screens show for `O=C(CCN1C(=O)/C(=C/c2ccccc2)SC1=S)NNC(=O)c1cccnc1`?
Sfp PPTase inh: 9.7%; PINK1 modulator: 7.9%; ClpP mod: 55.3%; TRPML1 agonist: 0.3; TRPML1 blocker: 8.8; Menin MLL FP FL: 4.7; TRPV1 potentiator: 11.3

What do the screens show for `CC(C)(C)c1ccc(C(=O)Nc2ccc(-c3nc4cc(Cl)ccc4o3)cc2)cc1`?
PINK1 modulator: 2.5%; ClpP mod: -4.2%; TRPML1 agonist: -0.6; TRPML1 blocker: 9.5

Results for Cc1ccc(S(=O)(=O)N2CCOCC2)cc1C(=O)NC1CCCC(C)C1C (configuration not stated) ?
PINK1 modulator: -1.0%; ClpP mod: -8.5%; TRPML1 agonist: 0.8; TRPML1 blocker: 25.4; TRPV1 potentiator: -2.2

What do the screens show for `CCOc1ccc(CC(=O)NCCc2sc3nc(-c4ccc(F)cc4)nn3c2C)cc1`?
PINK1 modulator: 1.8%; ClpP mod: -2.1%; TRPML1 agonist: 1.0; TRPML1 blocker: 6.3

The last two compounds of the section above are carried over, then new ones follow.
Results for Cc1ccc(S(=O)(=O)N2CCOCC2)cc1C(=O)NC1CCCC(C)C1C (configuration not stated) ?
PINK1 modulator: -1.0%; ClpP mod: -8.5%; TRPML1 agonist: 0.8; TRPML1 blocker: 25.4; TRPV1 potentiator: -2.2

What do the screens show for `CCOc1ccc(CC(=O)NCCc2sc3nc(-c4ccc(F)cc4)nn3c2C)cc1`?
PINK1 modulator: 1.8%; ClpP mod: -2.1%; TRPML1 agonist: 1.0; TRPML1 blocker: 6.3

What do the screens show for `COc1ccc([C@@H]2[C@@H]3C(=O)N(C(C)(C)C)C(=O)[C@@H]3[C@]3(CC(C)C)C(=O)N(c4cccc(Br)c4)C(=O)N23)cc1`?
Sfp PPTase inh: 5.6%; PINK1 modulator: 0.2%; ClpP mod: -3.6%; TRPML1 agonist: 1.4; TRPML1 blocker: 11.3; Menin MLL FP FL: -3.9; TRPV1 potentiator: -2.8

How did COc1ccc(/C=C/C(=O)N2CCN(C)CC2)cc1S(=O)(=O)N1CCCCC1 do in these assays?
Sfp PPTase inh: -13.1%; PINK1 modulator: 2.4%; ClpP mod: -0.9%; TRPML1 agonist: 0.7; TRPML1 blocker: 4.0; Menin MLL FP FL: 1.8; TRPV1 potentiator: 16.3

Results for COc1cccc(CNC(=O)Cn2c(=O)c3cccn3c3ccc(F)cc32)c1OC ?
PINK1 modulator: -0.4%; ClpP mod: -5.5%; TRPML1 agonist: 1.3; TRPML1 blocker: 8.0

What do the screens show for `CC(=O)N[C@@H](Cc1c[nH]c2ccccc12)C(=O)OCC(=O)NCc1ccc2c(c1)OCO2`?
Sfp PPTase inh: 7.3%; PINK1 modulator: -0.8%; ClpP mod: 0.1%; TRPML1 agonist: -0.2; TRPML1 blocker: 5.1; Menin MLL FP FL: -0.7; TRPV1 potentiator: -6.0

What do the screens show for `CCC1Nc2ncnc(N3CCN(c4ccccc4)CC3)c2N(Cc2ccc(Br)cc2)C1=O` (configuration not stated)?
PINK1 modulator: 8.4%; ClpP mod: -1.5%; TRPML1 agonist: 0.0; TRPML1 blocker: 13.8; TRPV1 potentiator: -1.9

What do the screens show for `CCc1ccc(NC(=O)CSc2nc3c(sc4ccccc43)c(=O)n2CCCOC)cc1`?
PINK1 modulator: -1.1%; ClpP mod: -2.3%; TRPML1 agonist: -0.5; TRPML1 blocker: -12.2

What do the screens show for `CCOC(=O)C1=C(C)Nc2[nH]c(=O)[nH]c(=O)c2C1c1cccs1` (configuration not stated)?
Sfp PPTase inh: -1.2%; PINK1 modulator: -0.8%; ClpP mod: -2.4%; TRPML1 agonist: -0.4; TRPML1 blocker: -7.4; Menin MLL FP FL: -0.8; TRPV1 potentiator: 7.4

Results for CCCN(CC(=O)Nc1ccccc1OC)C(=O)CCCN1C(=O)c2ccccc2C1=O ?
PINK1 modulator: -0.2%; ClpP mod: -0.7%; TRPML1 agonist: -0.2; TRPML1 blocker: 22.8; TRPV1 potentiator: 5.5

What do the screens show for `COc1ccccc1NC(=O)c1cc(C)oc1C`?
Sfp PPTase inh: 1.7%; PINK1 modulator: -0.2%; TRPML1 agonist: 0.4; TRPML1 blocker: 10.5; Menin MLL FP FL: 0.4; TRPV1 potentiator: -3.2

What do the screens show for `COc1ccc(CNC(=O)c2cc(C3CC3)nc3c2c(C)nn3-c2cccc(Cl)c2C)cc1`?
PINK1 modulator: 1.8%; ClpP mod: inconclusive; TRPML1 agonist: -0.5; TRPML1 blocker: 9.3

Results for CCN(CC)C(=O)CSc1nc2cc3c(cc2c(=O)n1CCCCCC(=O)NCc1ccc(OC)cc1)OCO3 ?
Sfp PPTase inh: -7.2%; PINK1 modulator: 8.3%&0.5%; ClpP mod: -1.8%; TRPML1 agonist: 1.7&2.3; TRPML1 blocker: 11.4&2.9; Menin MLL FP FL: 1.5; TRPV1 potentiator: 4.0

Results for O=C(O)c1csc(Br)c1Br ?
Sfp PPTase inh: -6.0%; PINK1 modulator: 2.3%; ClpP mod: 0.4%; TRPML1 agonist: 0.5; TRPML1 blocker: 12.3; Menin MLL FP FL: -10.5

Results for C=CCn1c(O)c(N=NC(=S)Nc2ccccc2F)c2ccccc21 ?
Sfp PPTase inh: -5.6%; PINK1 modulator: 5.9%; ClpP mod: 1.7%; TRPML1 agonist: 1.5; TRPML1 blocker: -4.8; Menin MLL FP FL: 2.4; TRPV1 potentiator: -1.5
